Screens (PubChem)
TRPV1 PAM: HTS Assay for Compounds that Act as Potentiators of the Vanilloid Receptor 1; 0.02% of 320,000 active; potentiation, % at 8.33 µM; Transient receptor potential cation channel subfamily V member 1 (Homo sapiens), Q8NER1; TRPV1-expressing cells, Fluo-8 calcium influx, capsaicin EC20 potentiation; host cell line not named in the record; control for the full effect not named in the record; active means potentiation above 80%; inconclusive means 30% to 80%; inactive means below 30%; further: 0% is about no effect
Target sequence (Q8NER1 whole entry, looked up): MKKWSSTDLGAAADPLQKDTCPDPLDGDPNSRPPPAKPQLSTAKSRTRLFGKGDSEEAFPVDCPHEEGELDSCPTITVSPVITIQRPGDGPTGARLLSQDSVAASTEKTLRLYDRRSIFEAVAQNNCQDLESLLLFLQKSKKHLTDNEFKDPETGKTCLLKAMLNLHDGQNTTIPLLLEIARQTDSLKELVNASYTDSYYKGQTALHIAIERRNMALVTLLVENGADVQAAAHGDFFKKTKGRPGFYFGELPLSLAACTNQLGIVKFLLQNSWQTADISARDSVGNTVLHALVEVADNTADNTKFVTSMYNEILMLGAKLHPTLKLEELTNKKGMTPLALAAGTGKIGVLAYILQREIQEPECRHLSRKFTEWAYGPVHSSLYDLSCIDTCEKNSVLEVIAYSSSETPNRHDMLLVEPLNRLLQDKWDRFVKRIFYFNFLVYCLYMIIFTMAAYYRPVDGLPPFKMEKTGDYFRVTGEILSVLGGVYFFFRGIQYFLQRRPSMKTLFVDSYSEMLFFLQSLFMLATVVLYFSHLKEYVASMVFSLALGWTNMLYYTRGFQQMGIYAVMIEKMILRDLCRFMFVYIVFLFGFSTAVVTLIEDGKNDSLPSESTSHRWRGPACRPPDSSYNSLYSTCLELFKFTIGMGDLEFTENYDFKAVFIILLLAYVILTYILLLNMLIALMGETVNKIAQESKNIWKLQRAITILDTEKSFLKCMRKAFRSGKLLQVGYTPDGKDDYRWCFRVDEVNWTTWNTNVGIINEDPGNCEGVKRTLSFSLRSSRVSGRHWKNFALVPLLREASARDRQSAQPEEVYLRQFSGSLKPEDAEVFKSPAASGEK
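Cells expressing TRPV1 were dye-loaded with Fluo-8 and read kinetically: 10 s baseline, 3 min after compound (agonist portion), then 2 min after EC20 capsaicin (allosteric enhancer portion). Calcium-bound dye fluorescence at 480/520 nm.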
Menin MLL FP FL: qHTS Assay for Inhibitors Targeting the Menin-MLL Interaction in MLL Related Leukemias: Competition With Fluorescein Labeled MLL-derived Peptide; Fluorescence polarization, fluorescein-MLL peptide displacement from menin; FP activity change, % at 61.4 µM; 290,000 tested, under 10 active; inconclusive = falling polarisation curve, or a change in total fluorescence; inactive = total fluorescence flat and polarisation flat or rising; no compound was filed as active; the % refers to the polarisation; negative = inhibition;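 further: % of control where 0% means no effect; inhibitors lower the polarisation; unlabelled MLL peptide was the positive control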
gsp antagonist: qHTS for Antagonists of gsp, the Etiologic Mutation Responsible for Fibrous Dysplasia/McCune-Albright Syndrome: qHTS; gsp-mutant cells, cAMP HTRF, 30 min; control for the full effect not named in the record; Potency, µM (series often up to 76.9 µM), for inactives: top-dose activity change, negative = inhibition, hits mostly inhibitors; 0.4% of 340,000 active; active = falling curve of any shape with a large fitted effect; inconclusive = falling curve, mostly with a smaller effect; inactive = flat or rising curve; cell line not stated here;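 further: intracellular cAMP measured with PDE inhibitor Ro 20-1724 present during compound exposure; potency means the concentration at half of the fitted maximal effect; on the % scale 0 is the no-effect control and ±100 the full control effect; nearly all actives have a fitted effect of over 65% in size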
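G418-selected cells were plated in DMEM/10% FBS for 16-24 h at 37C, then treated with compounds plus the PDE inhibitor […] (300 uM solution added) for 30 min at 37C. Intracellular cAMP was measured by HTRF after 30 min lysis at room temperature.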
ClpP mod: qHTS Assay for Activators of ClpP; 1.9% of 340,000 active; Potency, µM (titrated, usually from 57.5 µM), inactives show at the top dose activity change, negative = active; purified B. subtilis ClpP, FRET peptide cleavage, 20 min; ATP-dependent Clp protease proteolytic subunit (Bacillus subtilis (strain 168)), P80244; active = well fitted falling curve with a large enough effect; inconclusive = small, poorly fitted or top-dose-only effect; inactive = no such curve, though single readings can be large or run the other way; further: potency means the concentration at half of the fitted maximal effect; the source files actives as falling curves though it sought activators and does not explain the sign; nearly all actives have a fitted effect of over 65% in size; many hits overshoot -100%
Target sequence (P80244 whole entry, looked up): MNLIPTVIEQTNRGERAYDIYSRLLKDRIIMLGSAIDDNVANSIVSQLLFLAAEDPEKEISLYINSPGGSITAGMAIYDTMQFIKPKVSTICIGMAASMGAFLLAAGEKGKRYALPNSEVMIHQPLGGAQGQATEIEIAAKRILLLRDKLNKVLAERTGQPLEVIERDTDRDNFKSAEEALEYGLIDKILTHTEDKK
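Buffer: 100 mM Tris/HCl pH8, 100 mM KCl, 0.05% low protease BSA, 2.5% glycerol, 0.01% Tween-20. ClpP 10 microg/mL final; 20 min RT; delta FRET normalized to ADEP and DMSO controls.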
CtBP-E1A inh: qHTS Assay for Inhibitors of the CtBP/E1A Interaction | CtBP / adenovirus E1A interaction (AlphaScreen) | AlphaScreen GST-E1A/His-CtBP binding, 1536-well; active compounds read low; control for the full effect not named in the record | activity change, % (no concentration beside the values) | 0.49% of 340,000 active | AID 651724, 2012; in the data active means activity change below about -65%; inconclusive means about -30% to -65%; inactive means above about -30%; further: on the % scale 0 is the no-effect control and ±100 the full control effect
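In 5 uL wells, 23 nL compound meets equimolar GST-E1A and His-CtBP (5X stock 125 nM each) for 2 h, 37 °C. Beads (5X, 50 ug/mL) then 1 h, 37 °C, dark.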
gsp agonist: qHTS for Agonist of gsp, the Etiologic Mutation Responsible for Fibrous Dysplasia/McCune-Albright Syndrome: qHTS; 0.13% of 340,000 active; gsp mutant cells, cAMP HTRF, 30 min; control for the full effect not named in the record; Potency, µM (doses to about 76.9 µM), without a hit: at the top dose activation (cAMP increase), most hits filed as activators; AID 624287, 2012; active = well fitted activation curve with a large enough effect; inconclusive = small, poorly fitted or top-dose-only effect, or another doubt; inactive = no such curve, though single readings can be large or run the other way; cell line not stated here;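 further: phosphodiesterase inhibitor Ro 20-1724 added with compounds to block cAMP breakdown; potency means the concentration at half of the fitted maximal effect; nearly all actives have a fitted effect of over 60% in size; about a fifth of the inactives were tested at one dose only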
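Cells in DMEM/10% FBS with G418 were pretreated with compounds in DMSO plus […] (300 uM stock) for 30 min at 37C. cAMP was measured by HTRF (cAMP-d2 plus anti-cAMP antibody-K) after 30 min at room temperature.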
Sfp inh: qHTS Assay for Inhibitors of Bacillus subtilis Sfp phosphopantetheinyl transferase (PPTase). AID 1490, 2009. 3.5% of 310,000 active. Biochemical Sfp PPTase activity, qHTS. Potency, µM, for the others: max response, negative = inhibition, hits mostly inhibitors. 4'-phosphopantetheinyl transferase ffp (Bacillus subtilis), Q9F4F7; active means well fitted inhibition curve with a large enough effect; inconclusive means small, poorly fitted or top-dose-only effect, or another doubt; inactive means no such curve, though single readings can be large or run the other way;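 further: the enzyme is Sfp with the accession as filed and its product quenches rhodamine fluorescence; potency means the concentration at half of the fitted maximal effect; 0% = enzyme reaction without inhibitor and -100% = no enzyme wells; top concentration of the series not given in the record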
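With Hepes-Na pH 7.6 buffer containing 10 mM MgCl2, Sfp (15 nM) modified BHQ-2-YbbR (12.5 uM) using rhodamine-CoA (5 uM). Two reads 30 minutes apart at 525/598 nm yielded each well's rate.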
An asterisk follows results filed as active; [ ] = dose if it differs, or a comment.

For CCOC(=O)c1c2ccccc2[n+]([O-])n1CCO the results were TRPV1 PAM -1, gsp antagonist 4%, ClpP mod -28% and CtBP-E1A inh 0.
CC(C)C[C@H](NC(=O)N1CC(=O)Nc2ccccc21)C(=O)N[C@@H](Cc1c[nH]c2ccccc12)C(=O)O was read as TRPV1 PAM 8, Menin MLL FP FL 2.4, gsp antagonist 3%, ClpP mod 3.3%, CtBP-E1A inh 3 and Sfp inh 23%.
Screening Cc1c(C(=O)O)c(C(=O)O)nc2ccc(N3CCOCC3)cc12 returned TRPV1 PAM -9, Menin MLL FP FL 0.0 and Sfp inh 40µM*.
Cc1nc2ccc(N=NC3=C(O)CC(C)(C)CC3=O)cc2s1 was read as TRPV1 PAM inconclusive, Menin MLL FP FL 9.8, gsp antagonist -5%, ClpP mod -0.8%, CtBP-E1A inh -10, gsp agonist 21% and Sfp inh -12%.
`COC(=O)c1cc(CNC(=O)C(C)NS(=O)(=O)c2ccc(C)c(C)c2)ccc1OC` (stereo not given) gave TRPV1 PAM -12, Menin MLL FP FL -2.0, gsp antagonist -5%, CtBP-E1A inh 7, gsp agonist -2% and Sfp inh 14%.
`CC(=O)Nc1ccc(C(=O)Nc2ccc(S(=O)(=O)NCC3CCCO3)cc2)cc1` (stereo not given) gave TRPV1 PAM 2, Menin MLL FP FL 4.9, gsp antagonist 9%, ClpP mod -6.7%, CtBP-E1A inh -4, gsp agonist -15% and Sfp inh 6%.
Screening CCc1ccc(N=C2NC(=O)/C(=C/c3cc(OC)c(O)c(OC)c3)S2)cc1 returned TRPV1 PAM 2, Menin MLL FP FL inconclusive, gsp antagonist -1%, ClpP mod 2.4%, gsp agonist -8% and Sfp inh -11%.
For COc1ccc(NC(=O)COC(=O)C23CC4CC(CC(O)(C4)C2)C3)cc1Cl the results were gsp antagonist 4%, ClpP mod 0.9% and gsp agonist -20%.
For O=C(N[C@@H](Cc1ccc(O)cc1)C(=O)O)c1cccnc1 the results were TRPV1 PAM 25, Menin MLL FP FL -2.2, gsp antagonist 9%, ClpP mod -0.6%, CtBP-E1A inh 3 and Sfp inh 10%.
`C/C(=N\O)C(C)(C)Nc1ccc(Br)cc1` gave Menin MLL FP FL 0.3, gsp antagonist -2%, CtBP-E1A inh -12, gsp agonist -12%[15.4 µM] and Sfp inh 11%.
COc1ccccc1NC(=O)CSc1n[nH]c(-c2ccco2)n1 was read as gsp antagonist -14%, CtBP-E1A inh -2 and gsp agonist 1%[15.4 µM].
Cc1cc(C(=O)CSc2nn3c(=O)c(C(C)(C)C)nnc3s2)c(C)n1C was read as TRPV1 PAM 5, Menin MLL FP FL 1.2, gsp antagonist -10%, ClpP mod -0.7%, CtBP-E1A inh -13, gsp agonist 0% and Sfp inh -29%.
Screening O=C1/C(=C/c2ccccc2)SC(=S)N1CCCC(=O)N1CCCCC1CCO (stereo not given) returned TRPV1 PAM 19, gsp antagonist inconclusive, ClpP mod -2.0%, CtBP-E1A inh -20, gsp agonist inconclusive and Sfp inh -17%.
Screening CC[C@@]12C(=O)N(c3cccc(F)c3)C(=O)N1[C@H](c1ccc(Cl)cc1)[C@@H]1C(=O)N(C3CCCCC3)C(=O)[C@@H]12 returned TRPV1 PAM -23, gsp antagonist -6%, ClpP mod 1.0%, CtBP-E1A inh -3 and gsp agonist inconclusive.
Cc1cccc(-n2ncc3c2CCCC3NC(=O)CCN2CCCO2)c1C (stereo not given) was read as TRPV1 PAM 2, gsp antagonist 5%, ClpP mod -3.1%, CtBP-E1A inh 1, gsp agonist 20%[15.4 µM] and Sfp inh 1%.
For CCn1nc(C)c(/C=N/NC(=O)c2nc3nc(C)cc(C)n3n2)c1C the results were TRPV1 PAM 0, Menin MLL FP FL -0.9, gsp antagonist 1%, ClpP mod 0.2%, CtBP-E1A inh 1, gsp agonist -39%[inhibitor] and Sfp inh 2%.
`CC(=O)/C(=C/Nc1ccc(Oc2ccccc2)cc1)c1ccccc1` gave TRPV1 PAM -1, Menin MLL FP FL 0.2, gsp antagonist -4%, ClpP mod 7.9µM*, CtBP-E1A inh 36, gsp agonist inconclusive and Sfp inh -14%.
`COc1ccc(/C=N/NC(=O)CNS(=O)(=O)c2ccccc2)cc1` gave TRPV1 PAM -6, gsp antagonist -2%, ClpP mod -2.9%, CtBP-E1A inh -13 and gsp agonist -28%.
Screening CN(C)C=Nc1c(Br)cc(Br)c2nonc12 returned TRPV1 PAM -9, Menin MLL FP FL inconclusive, gsp antagonist 5%, ClpP mod -1.0%, CtBP-E1A inh 39, gsp agonist 11% and Sfp inh -14%.
Screening CCCn1c(-c2cc(OC)c(OC)c(OC)c2)nc2c1c(=O)[nH]c(=O)n2Cc1ccccc1 returned TRPV1 PAM 10, Menin MLL FP FL 1.5, gsp antagonist 11%, CtBP-E1A inh -4, gsp agonist -6%[15.4 µM] and Sfp inh 3%.

Structures listed so far that have an aryl thioether with sulfur outside any ring:
COc1ccccc1NC(=O)CSc1n[nH]c(-c2ccco2)n1 was read as gsp antagonist -14%, CtBP-E1A inh -2 and gsp agonist 1%[15.4 µM].
Cc1cc(C(=O)CSc2nn3c(=O)c(C(C)(C)C)nnc3s2)c(C)n1C was read as TRPV1 PAM 5, Menin MLL FP FL 1.2, gsp antagonist -10%, ClpP mod -0.7%, CtBP-E1A inh -13, gsp agonist 0% and Sfp inh -29%.

(cont.)
For O=C(Nc1cc(C(F)(F)F)cc(C(F)(F)F)c1)c1ccc(Cn2cc(C(F)(F)F)ccc2=O)cc1 the results were Menin MLL FP FL 1.2, gsp antagonist -4%, ClpP mod -5.5%, CtBP-E1A inh 15, gsp agonist 28% and Sfp inh 27%.
Screening O=C(NCCSCc1c(F)cccc1Cl)c1ccc(CN2CCOCC2)cc1 returned TRPV1 PAM -12, Menin MLL FP FL -3.6, gsp antagonist -3%, ClpP mod -1.4%, CtBP-E1A inh 9, gsp agonist 7% and Sfp inh 17%.
Screening O=C(Nc1ccccc1-c1ccccc1)C1CCC1 returned TRPV1 PAM -3, Menin MLL FP FL -0.3, gsp antagonist 0%, gsp agonist 14%[15.4 µM] and Sfp inh 6%.
`O=C(CSc1nc2ccccc2n1S(=O)(=O)c1cccc([N+](=O)[O-])c1)NCc1cccs1` gave TRPV1 PAM -1, Menin MLL FP FL 2.2, gsp antagonist 11%, ClpP mod 1.5%, CtBP-E1A inh 15, gsp agonist -4% and Sfp inh -7%.
Screening CCOC(=O)c1[nH]c2ccc(OC)cc2c1NC(=S)N1CCN(c2cccc(C)c2C)CC1 returned TRPV1 PAM 10, Menin MLL FP FL -2.9, gsp antagonist -13%, ClpP mod 1.0%, CtBP-E1A inh -19, gsp agonist 10% and Sfp inh 9%.
Screening N=C1C(=O)NC(=O)C1c1ccccc1 (stereo not given) returned gsp antagonist -17%, ClpP mod 0.8%, CtBP-E1A inh 22 and gsp agonist -11%.
For CC(C)(C)NC(=O)C(c1ccccn1)N(C(=O)c1ccc2c(c1)OCCO2)C1CCCC1 (stereo not given) the results were TRPV1 PAM -10, Menin MLL FP FL 1.5, gsp antagonist 11%, ClpP mod 0.9%, CtBP-E1A inh 5, gsp agonist -19% and Sfp inh 14%.
For CCC(=O)N1CCc2cc(S(=O)(=O)NCCC(=O)N3CCN(c4ccccn4)CC3)ccc21 the results were TRPV1 PAM 17, Menin MLL FP FL 5.1, gsp antagonist -7%, ClpP mod -28%, CtBP-E1A inh 0, gsp agonist -30%[inhibitor] and Sfp inh -1%.
Screening Cc1cccc2cc(CN(CCN(C)C)C(=S)Nc3ccccc3)c(=O)[nH]c12 returned TRPV1 PAM -5, Menin MLL FP FL -0.3, gsp antagonist 4%, ClpP mod -4.6%, CtBP-E1A inh 8, gsp agonist -13% and Sfp inh -1%.
For Cc1ccc(C(=O)Nc2nnc(C3CCCCC3)s2)o1 the results were TRPV1 PAM -12, Menin MLL FP FL -1.9, gsp antagonist 0%, ClpP mod -1.2%, CtBP-E1A inh 8, gsp agonist inconclusive and Sfp inh 3%.
Screening CCNc1ccc(Br)cc(C(=O)/C=C/c2ccc3c(c2)OCO3)c1=O returned TRPV1 PAM -15, Menin MLL FP FL inconclusive, gsp antagonist 4%, ClpP mod -4.7%, CtBP-E1A inh -2, gsp agonist -5% and Sfp inh -81%.
CC(C)C1=Nc2cccc3cccc(c23)N1 was read as TRPV1 PAM -2, Menin MLL FP FL 1.3, gsp antagonist -6%, ClpP mod 0.4%, CtBP-E1A inh -7, gsp agonist 24% and Sfp inh 35µM*.
`CC1CCCCN1C(=S)NC(=O)c1ccco1` (stereo not given) gave TRPV1 PAM -3, gsp antagonist -5%, ClpP mod 1.8%, CtBP-E1A inh -1 and gsp agonist -48%[inhibitor].
C=CCOc1ccc(/C=C/C(=O)OCC(=O)NC2CCCCCC2)cc1 was read as TRPV1 PAM 5, Menin MLL FP FL -5.7, gsp antagonist -2%, ClpP mod inconclusive, CtBP-E1A inh 0, gsp agonist inconclusive and Sfp inh 17%.
Screening O=C(NCCCN1CCCC1=O)c1ccc(OCc2ccccc2)cc1 returned TRPV1 PAM -2, Menin MLL FP FL 1.8, gsp antagonist 2%, ClpP mod 0.7%, CtBP-E1A inh 15, gsp agonist inconclusive and Sfp inh 14%.
Screening O=C(Nc1ccncc1)c1cc(S(=O)(=O)N2CCCCC2)ccc1Cl returned TRPV1 PAM -12, gsp antagonist 3%, CtBP-E1A inh 2 and gsp agonist -10%[15.4 µM].
